# YB-1 expr inh – YB-1 expression inhibition; U2OS, qRT-PCR YB-1 vs CDIP delta delta Cp, 16 h; hits give high values; zero = DMSO, each unit about twofold; delta delta Cp (YB-1 minus CDIP) (concentration not given with the values); 30,000 tested, 0.37% active;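 active = delta delta Cp rounded down to an integer at or above 3, about 3 SD of DMSO wells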;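 also: higher means less YB-1 transcript or more CDIP transcript relative to DMSO; stock transfer was 100 nL into about 100 µL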
# PD-1 reverse act – activators reversing PD-1 mediated T-cell inhibition; primary human CD4 T cells, PD-L1 beads, CellTiter-Glo 96 h; activation, % (concentration not given with the values); 29,000 tested, under 10 active; AID 2316;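 active = replicate mean of 50% or more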;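 also: 0% = median vehicle wells and 100% = positive control; 100 nL library stock added to about 50 µL; numbers are from one replicate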
# MITF inh – blocks MITF activity; TRPM1 promoter luciferase, luminescence, 24 h; inhibition, % (test concentration not listed); 37,000 tested, 0.28% active; AID 2240;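 active = most replicates at 85% or more, or half of them and the mean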;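 also: human melanocyte line stably carrying TRPM1 promoter luciferase reporter; 0% = vehicle wells and 100% = a positive control; the first replicate is given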
# Hedgehog inh – blocks Sonic Hedgehog signaling | Shh-LIGHT2 Gli-luciferase reporter, 30 h | AID 2313 | inhibition, % (concentration not given with the values) | 22,000 tested, 2.1% active;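 active = replicate mean of 65% or more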;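 also: pathway switched on by Shh-conditioned medium diluted 1 in 25 in low serum; 100 nL library stock added to about 40 µL; 0% = median of neutral wells and 100% = positive control level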
# * hit, by the source's call; x = no result given. This is a subset. The share of hits here may be higher or lower than overall.
# Key to letters – A = YB-1 expr inh; B = PD-1 reverse act; C = MITF inh; D = Hedgehog inh
> CO[C@H]1[C@H](O)[C@H](O[C@H]2CC[C@]3(C)C4CC[C@]5(C)[C@H](C6=CC(=O)OC6)CC[C@]5(O)C4CC[C@@H]3C2)O[C@@H](C)[C@@H]1O[C@@H]1O[C@H](CO[C@@H]2O[C@H](CO)[C@@H](O)[C@H](O)[C@H]2O)[C@@H](O)[C@H](O)[C@H]1O (stereo not given in full)
  A: -0.089	B: -12	C: 31	D: -5

> NCC(CS(=O)(=O)O)c1ccc(Cl)cc1 (stereo not given)
  A: 0.18	B: x	C: -8	D: 12

> COc1cc2c(cc1O)C1Cc3ccc(OC)c(O)c3CN1CC2 (stereo not given)
  A: 0.079	B: -13	C: 4	D: -7

> NC1=C(C(=O)OCc2ccccc2)C2(C(=O)Nc3ccc(Br)cc32)C2=C(O1)C(=O)CCC2 (stereo not given)
  A: -0.37	B: -1.6	C: 10	D: -16

> CCC1(c2ccc(N)cc2)CCC(=O)NC1=O (stereo not given)
  A: -0.19	B: x	C: -9	D: -32

> COc1cc2c(cc1O)[C@@H]1Cc3ccc(OC)c(O)c3CN1CC2
  A: 0.44	B: x	C: 28	D: -9

> CCNC(=S)N1CCN(CC(=O)Nc2ccc(Cl)cc2C(=O)c2ccccc2)CC1
  A: x	B: -4.9	C: -2	D: x

> Clc1ccc(C2CC3CCC2N3)cn1 (stereo not given)
  A: -0.0069	B: -2.3	C: -7	D: -40

> CCOC(=O)C1C2c3ccccc3C(c3ccccc32)C1C(=O)OCC (stereo not given)
  A: 0.0043	B: -0.3	C: 22	D: -36

> CO[C@H]1[C@H](O)[C@@H](O[C@H]2CC[C@]3(C=O)C4CC[C@]5(C)[C@@H](C6=CC(=O)OC6)CC[C@]5(O)C4CC[C@@H]3C2)O[C@@H](C)[C@@H]1O (stereo not given in full)
  A: x	B: x	C: 29	D: -53

> O=C1CCCC2C3CC(CN12)[C@@H]1CCCCN1C3 (stereo not given in full)
  A: -0.65	B: x	C: -2	D: 3

> c1ccc(C2CNCc3ccccc32)cc1 (stereo not given)
  A: 0.23	B: x	C: 11	D: -5

> O=C(c1ccccc1)N1CC2CC(C1)c1cccc(=O)n1C2 (stereo not given)
  A: -0.0093	B: -0.5	C: 5	D: 19

> O=c1c2ccccc2nc(C(F)(F)F)n1-c1ccccc1
  A: 0.026	B: 3.5	C: 1	D: -3

> CC1=CC(=O)C2=C(C)C[C@H](O)[C@@H]3[C@H](OC(=O)[C@@H]3C)[C@@H]12
  A: 0.33	B: x	C: x	D: -18

> C=C(CO)C(=O)O[C@H]1C/C(C)=C\CC/C(CO)=C\[C@H]2OC(=O)C(=C)[C@H]12
  A: -8.4	B: -18	C: -15	D: 7

> CCCSP(=O)(OCC)SCCC
  A: 0.43	B: x	C: 0	D: -44

# Some entries already given, limited to YB-1 expr inh, Hedgehog inh and PD-1 reverse act:
smiles | YB-1 expr inh | Hedgehog inh | PD-1 reverse act
NCC(CS(=O)(=O)O)c1ccc(Cl)cc1 (stereo not given) | 0.18 | 12 | x
COc1cc2c(cc1O)C1Cc3ccc(OC)c(O)c3CN1CC2 (stereo not given) | 0.079 | -7 | -13
NC1=C(C(=O)OCc2ccccc2)C2(C(=O)Nc3ccc(Br)cc32)C2=C(O1)C(=O)CCC2 (stereo not given) | -0.37 | -16 | -1.6

# An excerpt of these results, field by field.
C=C(CO)C(=O)O[C@H]1C/C(C)=C\CC/C(CO)=C\[C@H]2OC(=O)C(=C)[C@H]12
  YB-1 expr inh = -8.4
  PD-1 reverse act = -18
  MITF inh = -15
  Hedgehog inh = 7
CCCSP(=O)(OCC)SCCC
  YB-1 expr inh = 0.43
  PD-1 reverse act = x
  MITF inh = 0
  Hedgehog inh = -44

# Screening results deposited in PubChem BioAssay by Broad Institute.
